# AID504770 = growth inhibitors of E. coli YBA685 in a screen for V. cholerae RctB (chromosome II replication) inhibitors | E. coli YBA685 rctB-dependent plasmid, OD600 growth, 3 h; active compounds read low | z-score (test concentration not listed) | 0.27% of 130,000 active;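 active = z-score under -2 on both plates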;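 note: wells of about 30 µL received 100 nL stock; score is relative to mean and SD of the test wells; the first replicate is given; strong numbers were not always called active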
# Ba CapD inh = inhibitors of Bacillus anthracis CapD enzyme; purified CapD enzyme, fluorescence intensity read-out; active compounds read low; some hits fall short of the stated cut; z-score (test concentration not listed); 0.23% of 140,000 active; AID 492967;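 active = z-score under -4 in either of two replicates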;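 note: stock transfer was 100 nL into about 40 µL; score is relative to mean and spread of the plate; one replicate is shown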
# * = called active by the depositor; . = not tested or not shown; & = joins results of further samples.
SMILES,AID504770,Ba CapD inh
Cc1nn(C)cc1CN(C)C(=O)c1cc2n(n1)C(C(F)(F)F)CC(c1ccccc1)N2 (stereo not given),0,-0.145
O=C(CCCn1c(=S)[nH]c2ccc(Br)cc2c1=O)N1CCN(c2ncccn2)CC1,.,-0.22
O=C1N(CCCN2C(=O)C3(OCCO3)c3ccccc32)c2ccccc2C12OCCO2,.,0.235
CCCC(NC(=O)c1ccco1)C(=O)O (stereo not given),-0.75,0.555
C/C(N)=C(/C#N)C(=O)Cn1nnc(-c2ccccc2)n1,0,.
COC(=O)c1cc2sccc2n1CCC#N,-0.45,.
COc1cccc(-c2noc(-c3cc(OC)cc(OC)c3)n2)c1,-1.1,0.82
COc1cccc(N=C2NN=C(c3ccc(S(=O)(=O)N4CCCCC4)cc3)CS2)c1,-0.4,.
O=C(Nc1ccccc1C(=O)N1CCCC1)c1cccc(I)c1,0.2,0.575
S=c1sc2ccccc2n1CN1CCOCC1,-1.2,.
CCCCc1ccc(NC(=O)C2CC(=O)N(C)C2)cc1 (stereo not given),-1.15,0.33
Cc1sc2ncnc(NC(C)C(=O)O)c2c1C (stereo not given),-1.25,.

# Profiles, looked up by structure. Order of values: AID504770 | Ba CapD inh
# C/C(N)=C(/C#N)C(=O)Cn1nnc(-c2ccccc2)n1 in the list: 0 | .
# COc1cccc(-c2noc(-c3cc(OC)cc(OC)c3)n2)c1 in the list: -1.1 | 0.82

# Next part:
SMILES,AID504770,Ba CapD inh
OCCNc1ncnc2scc(-c3ccc(F)cc3)c12,1.4,.
COc1ccc(Br)cc1C1C(C(=O)N2CCOCC2)=C(C)NC2=C1C(=O)CC(C)(C)C2 (stereo not given),.,30
O=C(CNC(=O)c1ccc(Br)cc1)NC1CC1,1.35,.
CC(N=C1CCCc2ccccc2N1)C(=O)O (stereo not given),-0.25,0.365
N#Cc1ccc(-c2cccc(C(F)(F)F)c2)nc1Oc1cccc(Cl)c1,.,0.3
COc1ccc(N(C)S(=O)(=O)c2ccc3c(c2)CC(C)N3C(=O)C2CC2)c(OC)c1 (stereo not given),0,-0.37
COc1ccccc1NC(=O)C(C)OC(=O)c1ccc(O)cc1 (stereo not given),-0.3,.
CN(C)C(=O)CSc1nnc(-c2ccco2)o1,-1.05,0.21
CCc1cccc(CC)c1NC(=O)c1cccs1,0.7,0.69
CC(=NC(C)C)C1=C(O)C(C)OC1=O (stereo not given),-0.35,0.19
COC(=O)Cc1c(C(=O)OC)nnn1-c1ccc(Br)cc1,0.25,0.365
COC(=O)COc1ccc(/C=C2\C(=O)NC(=S)N(c3ccc(Br)cc3)C2=O)cc1OC,.,-0.76
CCN1C(=O)C(O)(CC(=O)c2ccc(OC)c(OC)c2)c2ccccc21 (stereo not given),0.05,.
O=c1cc(N2CCN(c3cccc(Cl)n3)CC2)[nH]c(=O)n1C1CCCCC1,.,-1.1
COC(=O)c1c(C)oc2ccc(N(C(=O)Oc3ccccc3)S(=O)(=O)c3ccc(C)cc3)cc12,1.2,0.145
O=C1C2CCCC1C(N1CCCCC1)CC2 (stereo not given),-0.8,-0.72
CCC(=O)N(c1cccc(S(=O)(=O)C(F)(F)F)c1)C1CCN(C(C)=O)CC1,.,0.19
CCC(CC)NC(=O)Nc1ccc(F)cc1F,-0.85,-0.525
CCCc1cc(=O)[nH]c(=S)[nH]1,1.1&0.1,-0.18&-0.04
CCC1(C)NC(=O)N(/N=C/c2cc(Br)ccc2OC)C1=O (stereo not given),0.4,.
C/C=C1\NC(=S)N(Cc2ccccc2)C1=O,0.7,.
CC1=C(C(=O)OC2CCC(C)C(C)C2)C(c2ccc(Br)cc2)NC(=O)N1 (stereo not given),.,-0.185
FC(F)(F)c1cccc(NCc2cn3cccnc3n2)c1,0,0.59
CN1C(=O)CCC1(C(=O)O)c1ccccc1 (stereo not given),0.95,-0.06
N#CCCn1cc(/C=C/C(=O)OCC(=O)c2ccc(Cl)cc2)c(-c2cc3ccccc3o2)n1,0.2,.
O=C(COc1ccccc1)OCC(=O)C12CC3CC(CC(C3)C1)C2,-0.1,-0.35
O=C(/C=C/c1cc2cccc3c2n(c1=O)CCC3)N1CCOCC1,.,5.32
COC(=O)c1ccc(Cl)cc1NC(=O)c1ccc(F)cc1,-0.4,-0.615
CCN(CC)c1ccc(N=CN2CCOCC2)cc1,-0.15,.
CCN=C1SC(CC(=O)Nc2sc3c(c2C(=O)OC)CCCC3)C(=O)N1CC (stereo not given),.,0.47
COc1cc2c(cc1NC(=O)CSCc1nc(N)nc(Nc3ccccc3C)n1)oc1ccccc12,0.45,.
CCCc1cc2c(cc1NC(=O)c1ccccc1SC)OCO2,0.55,0.11
S=c1[nH]nc(Cc2ccccc2)o1,1.1&-1.5,-0.76
O=C(CN1C(=O)C2C3c4ccccc4C(c4ccccc43)C2C1=O)OC1CCCCC1 (stereo not given),.,0.145
Cc1cccc(-n2ncc(C(=O)N3CCC(C(N)=O)CC3)c2-n2cccc2)c1,-2.3,-0.64
CCCCCn1c2ccccc2c2nc3ccccc3nc21,-0.6,-0.05
CC(=O)Nc1nnc(S(N)(=O)=O)s1,0.3,0.68&2.34
Cc1cnc(C(=O)Nc2ccccc2-c2nnn(CC(=O)NC3CCCC3)n2)cn1,0.7,0.805
CCOC(=O)C1=C(NC(=O)CC)c2ccccc2CC12CCCCC2,.,-0.155
CSc1n[nH]c(NS(=O)(=O)c2cccc(C(F)(F)F)c2)c1-c1ccccn1,-1,-0.49
COc1ccc(/C=C2\Cc3ccccc3C2=O)cc1O,0.6,.
CC(NC(=O)CN1CCc2ccccc21)c1ccccc1 (stereo not given),-0.25,0.12
CN(C(=O)COC(=O)c1ccccc1O)C1CCCCC1,1.2,3.79
O=C(Nc1sc2c(c1-c1nc3ccccc3s1)CCCC2)c1sc2ccccc2c1Cl,.,-0.075
COc1cc(/C=C/C(=O)O)cc(S(=O)(=O)N2CCOCC2)c1OC,0.35,-0.25
COC(=O)c1c(C)[nH]c(C(=O)CN(C)CC(=O)Nc2c(C)cc(C)cc2C)c1C,0.7,.
Cc1cc(C)cc(NS(=O)(=O)c2ccc3c(c2)CC(=O)N3)c1,0.6,0.195
COc1ccc(-c2nn(-c3ccccc3)cc2CC(=O)O)cc1,-0.15,.
O=C(CSc1ccccc1)N1CCc2ccccc21,-0.85,1.48
COC(=O)C1(O)/C(=C(\O)c2ccc(Br)cc2)C(=O)C(=O)N1c1ccccc1 (stereo not given),.,4.9
CCn1c(=O)n(-c2ccccc2)c(=O)c2c1c1cc(OC)ccc1n2C,0.4,22.1
COc1ccc(N2CCN(c3nc(NCc4ccc(Cl)cc4)nc(N4CCOCC4)n3)CC2)cc1,.,-0.085
CCCN1CCC(N(C(=O)c2ccc(NC(=O)c3ccc(C(F)(F)F)cc3)cc2)C2CC2)CC1,.,-0.515
O=C(N1CCN(c2ccccc2F)CC1)N1c2ccccc2Sc2ccccc21,-0.25,-0.05
CCOC(=O)c1c(NC(=O)C(C)Sc2nc3c(cnn3-c3ccc(C)cc3)c(=O)[nH]2)sc2c1CCC2 (stereo not given),-0.1,1.59
CC1(C)CC(=O)C2=C(C1)c1c(ccc3ncccc13)NC2c1ccc(O)cc1 (stereo not given),.,0.015
CC(NC(=O)C1CC1)c1ccc(S(C)(=O)=O)cc1 (stereo not given),.,-0.22
COc1ccccc1C(=O)C1C(=O)NC2(C)CC1c1cccc(OC)c1O2 (stereo not given),-0.85,0.49
Cc1cccc(N2CCN(S(=O)(=O)c3cccc4nsnc34)CC2)c1C,.,-0.05
COc1ccc2c(CC(=O)N(C)CC3COc4ccccc4O3)coc2c1 (stereo not given),-0.25,.
# The results go on:
SMILES,AID504770,Ba CapD inh
C=CCn1c(Sc2ncnc3c2cnn3-c2ccccc2)nnc1-c1ccncc1,-1.35,3.17
N#CCCN(/N=C/c1ccc(-c2ccc(Br)cc2)o1)C1=NS(=O)(=O)c2ccccc21,-0.3,0.975
COc1cccc(Cn2cnc3c(NS(C)(=O)=O)c(C)c(C)cc32)c1,.,-0.285
C=CCn1sc(=N)c(C#N)c1N,-0.6,-0.14
CC(C)(C)c1ccc(C(=O)N2CCC(NC(=O)c3ccccc3)CC2)cc1,.,0.65
Cc1nc2c(Cl)c(Cl)c(Cl)c(N3CCOCC3)c2[nH]1,1.1,-0.565
COC(COC(=O)N1CCC(O)(Cc2ccccc2)CC1)c1ccccc1 (stereo not given),.,-0.815
O=C(NN=C1C2CC3CC(C2)CC1C3)c1ccncc1,-0.1,.
CCSc1nnc(NC(=O)c2cccn(OCc3cccc(Cl)c3)c2=O)s1,0,0.525
CCOc1ccc(NC(=O)c2cc3n(n2)CCCN(Cc2ccccc2)C3=O)cc1,-1.65,0.475
CCC(=O)N1c2ccccc2C(=C2SC(C(=O)OC)=C(C(=O)OC)S2)C(=S)C1(C)C,.,-0.22
Cc1sc2ncnc(Sc3nnnn3-c3ccccc3)c2c1C,-0.1,0.6
CCCCOC(=O)c1c(C)oc2ccc(NS(=O)(=O)c3ccc4c5c(cccc35)C(=O)N4)cc12,.,-0.305
Cc1cc2ccccn2c1C(=O)c1cccc(S(=O)(=O)N(C)C)c1,0.05,-0.14
Cc1cc(-c2ccccc2N)nc2ccccc12,-0.35,-1.32
Cc1ccc(C2NCCS2)cc1 (stereo not given),-0.8,.
c1ccc2c3c(cc(N4CCOCC4)c2c1)OC1(N2CCOCC2)CCCCC1O3 (stereo not given),0,.
O=C(O)c1cc(=O)[nH]c2c(C(F)(F)F)cccc12,-0.3,10.7
O=C(NCc1ccco1)c1ccc(CS(=O)(=O)c2ccccc2)cc1,2.3,0.27
O=C(COC(=O)c1cccc(NS(=O)(=O)c2ccc3[nH]c(=O)c(=O)[nH]c3c2)c1)c1ccccc1,-0.7,2.2
COc1ccc(OC)c(N=Cc2c(O)n(-c3ccccc3C)c(=S)[nH]c2=O)c1,.,-0.17
COc1ccc(-c2ocnc2C(=O)NCc2ccccc2)cc1,0.3,9.73
COC(CNCc1cc(Cl)c2c(c1)OCCCO2)OC,-0.1,.
O=C(NCCOc1ccccc1Cl)c1ccccc1Br,-0.75,0.005

# Looked up above:
# O=C(COC(=O)c1cccc(NS(=O)(=O)c2ccc3[nH]c(=O)c(=O)[nH]c3c2)c1)c1ccccc1 in AID504770: -0.7
# COC(CNCc1cc(Cl)c2c(c1)OCCCO2)OC in AID504770: -0.1
# COc1ccc(OC)c(N=Cc2c(O)n(-c3ccccc3C)c(=S)[nH]c2=O)c1 in Ba CapD inh: -0.17
# Cc1cc2ccccn2c1C(=O)c1cccc(S(=O)(=O)N(C)C)c1 in AID504770: 0.05
# CCCCOC(=O)c1c(C)oc2ccc(NS(=O)(=O)c3ccc4c5c(cccc35)C(=O)N4)cc12 in Ba CapD inh: -0.305
# c1ccc2c3c(cc(N4CCOCC4)c2c1)OC1(N2CCOCC2)CCCCC1O3 (stereo not given) in AID504770: 0

# Nothing new here: an excerpt of the list.
SMILES,AID504770,Ba CapD inh
O=C(COC(=O)c1cccc(NS(=O)(=O)c2ccc3[nH]c(=O)c(=O)[nH]c3c2)c1)c1ccccc1,-0.7,2.2
COc1ccc(OC)c(N=Cc2c(O)n(-c3ccccc3C)c(=S)[nH]c2=O)c1,.,-0.17
COc1ccc(-c2ocnc2C(=O)NCc2ccccc2)cc1,0.3,9.73
COC(CNCc1cc(Cl)c2c(c1)OCCCO2)OC,-0.1,.
O=C(NCCOc1ccccc1Cl)c1ccccc1Br,-0.75,0.005

# (more compounds)
SMILES,AID504770,Ba CapD inh
CC(C)N(Cc1ccccc1)S(=O)(=O)c1ccc(S(=O)(=O)c2ccccc2)s1,-0.4,-0.495
Cc1cc(NC(=O)COc2coc(CN3CCc4ccccc4C3)cc2=O)no1,1.3,.
S=c1nc(Nc2ccccc2)c2ccccc2[nH]1,0.85,.
CN1C(=C(C#N)C(=O)CN2c3cccc4cccc(c34)S2(=O)=O)N(C)c2ccccc21,0,.
CC(c1ccccc1)n1c(SCc2cc(=O)oc3cc(O)ccc23)n[nH]c1=O (stereo not given),0.05,-0.335
O=C(COc1ccccc1C(=O)O)NC12CC3CC(CC(C3)C1)C2,-0.4,0.315

# Molecules shown so far that contain a cyano group (seven):
SMILES,AID504770,Ba CapD inh
C/C(N)=C(/C#N)C(=O)Cn1nnc(-c2ccccc2)n1,0,.
COC(=O)c1cc2sccc2n1CCC#N,-0.45,.
N#Cc1ccc(-c2cccc(C(F)(F)F)c2)nc1Oc1cccc(Cl)c1,.,0.3
N#CCCn1cc(/C=C/C(=O)OCC(=O)c2ccc(Cl)cc2)c(-c2cc3ccccc3o2)n1,0.2,.
N#CCCN(/N=C/c1ccc(-c2ccc(Br)cc2)o1)C1=NS(=O)(=O)c2ccccc21,-0.3,0.975
C=CCn1sc(=N)c(C#N)c1N,-0.6,-0.14
CN1C(=C(C#N)C(=O)CN2c3cccc4cccc(c34)S2(=O)=O)N(C)c2ccccc21,0,.

# High-throughput results deposited in PubChem BioAssay by ICCB-Longwood Screening Facility, Harvard Medical School.
